# KCNQ2 enhance: potentiators of rat KCNQ2 potassium channel; O88943; CHO-K1 KCNQ2, FluxOR thallium flux fluorescence; hits give high values; B-score at 10 µM; hit rate 0.54% among 310,000;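 active = fluorescence ratio B-score at least 3 SD of library B-scores, with initial fluorescence B-score within 3 SD, cut at about 5.3 in these data; same plate scores as AID 2156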;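 also: B-score of peak minus minimum over baseline fluorescence ratio after K+ and Tl+ stimulus; positive B-score means potentiation of KCNQ2 with more thallium influx and brighter signal; only the inactives scoring about 0 or higher are listed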
# Target sequence (O88943 whole entry, looked up): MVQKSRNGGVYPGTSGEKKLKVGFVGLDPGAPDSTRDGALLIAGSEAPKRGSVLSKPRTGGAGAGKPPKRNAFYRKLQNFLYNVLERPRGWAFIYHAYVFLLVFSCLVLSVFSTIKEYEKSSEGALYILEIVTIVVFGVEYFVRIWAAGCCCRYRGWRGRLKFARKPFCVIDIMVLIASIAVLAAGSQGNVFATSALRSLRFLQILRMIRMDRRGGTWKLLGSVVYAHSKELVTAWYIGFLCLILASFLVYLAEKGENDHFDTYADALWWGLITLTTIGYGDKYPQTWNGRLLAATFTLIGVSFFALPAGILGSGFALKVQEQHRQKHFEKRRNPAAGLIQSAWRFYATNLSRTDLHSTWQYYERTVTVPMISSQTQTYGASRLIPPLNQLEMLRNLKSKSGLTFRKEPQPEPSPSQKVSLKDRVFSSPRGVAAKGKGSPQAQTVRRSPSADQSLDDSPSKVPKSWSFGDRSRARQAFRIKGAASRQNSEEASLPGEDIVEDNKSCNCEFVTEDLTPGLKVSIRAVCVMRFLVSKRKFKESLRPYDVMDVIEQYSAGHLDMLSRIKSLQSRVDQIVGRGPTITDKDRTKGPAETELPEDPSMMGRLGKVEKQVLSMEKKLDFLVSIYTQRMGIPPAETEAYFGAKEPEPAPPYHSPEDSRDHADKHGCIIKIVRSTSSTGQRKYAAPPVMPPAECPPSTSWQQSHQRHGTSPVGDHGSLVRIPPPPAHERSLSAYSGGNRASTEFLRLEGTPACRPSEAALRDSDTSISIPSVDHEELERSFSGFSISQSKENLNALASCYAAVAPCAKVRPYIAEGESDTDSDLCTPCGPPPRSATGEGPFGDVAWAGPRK
# KCNQ2 enhance baseline: further read-out of KCNQ2 enhance, marked with its call; B-score; compound at 10 µM; measured here: initial fluorescence intensity artifact check;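 brightness before thallium and not channel activity; 0 = typical well and far values either way flag optical interference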
# * marks the source's active call; other numbers are inactive results.
SMILES,KCNQ2 enhance,KCNQ2 enhance baseline
CCCc1cc(=O)[nH]c(SCC(=O)N2CCCC2=O)n1,1.17,1.66
OCC(O)C1OC(Nc2ccc(Br)cc2)C(O)C1O (configuration not stated),0.31,-1.36
CC(C)(C)NC(=O)C1CC(=O)OC12CCCCC2 (configuration not stated),0.34,-0.2
Nc1cc(=O)[nH]c(SCC(=O)Nc2nnc(-c3ccccc3)s2)n1,2.36,-0.54
COc1ccccc1OCCSc1nnc(CNC(=O)c2ccco2)n1C,1.46,-0.43
CCCCn1c(N)c(N(CCOC)C(=O)COC(=O)COc2ccc(CC)cc2)c(=O)[nH]c1=O,0.19,0.98
c1ccc2cc(-c3cc4ccccn4c3)ccc2c1,0.35,-2.26
Cc1oc(-c2cccs2)nc1CN1CCN(C(C)C)C(CCO)C1 (configuration not stated),0.33,1.62
COc1ccccc1-c1cc(C(F)(F)F)nc(S(C)(=O)=O)n1,0.2,0.03
CC1(C)CC2CC(C)(CN2C(=O)c2ccc([N+](=O)[O-])cc2[N+](=O)[O-])C1 (configuration not stated),0.02,-0.9
Cc1cc(C)cc(-n2c(O)c(C=NC3CCS(=O)(=O)C3)c3ccccc3c2=O)c1 (configuration not stated),0.14,-0.56
CC(CCc1ccccc1)NCC#N (configuration not stated),1.99,-0.19
CCC1(C)Cc2c(sc3[nH]c(=O)[nH]c(=O)c23)CS1 (configuration not stated),2.9,-0.57
CCOC(=O)C1CCN(c2c(N3CCCC(C(=O)OCC)C3)c(=O)c2=O)CC1 (configuration not stated),0.56,-0.05
O=C1c2ccccc2C(=O)N1Cc1nc2ccccc2c(=O)n1CCCN1CCOCC1,0.91,0.21
CCNC(=O)N1CCCC(C(=O)c2ccc(-c3ccccc3)cc2)C1 (configuration not stated),0.73,-2.74
Cc1cccc2c1cnn2C(=O)CCC(=O)N1CCC(C)CC1,5.15,0.59
CC1=NN(Cc2ccccc2)C(=O)C1C(c1ccncc1)C(C#N)C#N (configuration not stated),0.84,-0.39
CC(=O)Cn1cnc2sc(-c3ccccc3)cc2c1=O,0.67,-0.86
COC/C=C/C1=CC2=CC(=O)C(C)(OC(=O)c3cnc4ccccc4n3)C(=O)C2=CN1CCc1c[nH]c2ccccc12 (configuration not stated),0.04,-1.67
N/C(=N\OC(=O)Cc1ccc(Cl)cc1)c1cccnc1,0.27,-0.06
COc1ccc(NC(=O)CS(=O)c2cccc(Cl)c2)cc1 (configuration not stated),0.8,-1.91
CCOC(=O)N1CCC(N(CCN(C)C)C(=S)Nc2cc(C)ccc2C)CC1,0.41,0.96
COc1ccccc1CNS(=O)(=O)c1ccc(Cl)s1,0.98,0.48

# One compound at a time (already shown). Values in the order: KCNQ2 enhance, KCNQ2 enhance baseline
# Entry for O=C1c2ccccc2C(=O)N1Cc1nc2ccccc2c(=O)n1CCCN1CCOCC1 → 0.91, 0.21
# Entry for COC/C=C/C1=CC2=CC(=O)C(C)(OC(=O)c3cnc4ccccc4n3)C(=O)C2=CN1CCc1c[nH]c2ccccc12 (configuration not stated) → 0.04, -1.67
# Entry for COc1ccc(NC(=O)CS(=O)c2cccc(Cl)c2)cc1 (configuration not stated) → 0.8, -1.91

# Quoted at random: 5 entries already listed.
SMILES,KCNQ2 enhance,KCNQ2 enhance baseline
O=C1c2ccccc2C(=O)N1Cc1nc2ccccc2c(=O)n1CCCN1CCOCC1,0.91,0.21
CC1=NN(Cc2ccccc2)C(=O)C1C(c1ccncc1)C(C#N)C#N (configuration not stated),0.84,-0.39
c1ccc2cc(-c3cc4ccccn4c3)ccc2c1,0.35,-2.26
CC1(C)CC2CC(C)(CN2C(=O)c2ccc([N+](=O)[O-])cc2[N+](=O)[O-])C1 (configuration not stated),0.02,-0.9
COC/C=C/C1=CC2=CC(=O)C(C)(OC(=O)c3cnc4ccccc4n3)C(=O)C2=CN1CCc1c[nH]c2ccccc12 (configuration not stated),0.04,-1.67

# Next section
SMILES,KCNQ2 enhance,KCNQ2 enhance baseline
O=C(NCC1CCCO1)C1CCN(S(=O)(=O)c2ccccc2)CC1 (configuration not stated),1.46,-2.01
COc1ccc(/C=C/c2nnc(NC(=O)COc3ccc(C)cc3)s2)cc1,2.01,-1.04
CCc1ccc(N(CC(=O)NCc2ccco2)C(=O)CCC(=O)Nc2ccccn2)cc1,0.07,-0.24
Cc1cccn2c(=O)nc(SCC(=O)N3CCOCC3)nc12,0.02,-1.9
CN(C)c1ccc(/C=N/NC(=O)c2ccc(Cn3cc(Br)cn3)o2)cc1,3.7,0
CC(=O)Oc1ccc2occ(/C=N/c3cc(=O)[nH]c(=S)[nH]3)c(=O)c2c1,1.21,0.56
COc1cc(S(=O)(=O)n2nc(C)cc2C)ccc1Cl,1.91,2.05
Cn1c(Cc2cccc3ccccc23)nnc1SCc1ccc([N+](=O)[O-])cc1,0.04,0.23
Oc1c(C(Nc2ccccn2)c2ccccn2)ccc2cccnc12 (configuration not stated),2.23,-1.74
Cc1ccc(S(=O)(=O)N(C)c2ccc(C(=O)Nc3ccccc3C(=O)N3CCOCC3)cc2)cc1,1.41,1.98
COc1cc(-c2nc(CN3CCCCC3CCNC(C)=O)c(C)o2)ccc1F (configuration not stated),1.96,-2.11
Cc1cc(NC(=O)/C=C/c2ccc(Cl)cc2)no1,1.15,-2.24
CCCCNc1nc2cccnc2s1,1.02,1.27
CSc1ccc(S(=O)(=O)NCC(=O)OCC(=O)NCC2CCCO2)cc1[N+](=O)[O-] (configuration not stated),0.66,-1.78
CCc1cccc2c(C(=O)CSc3nncn3C)c[nH]c12,1.45,-0.04
COc1ccc(-c2csc(N3C(=O)C4C5c6ccccc6C(c6ccccc65)C4C3=O)n2)cc1 (configuration not stated),0.02,-0.92
Cc1ccc(CNC(=O)C2CCN(S(=O)(=O)c3ccc4c(c3)OCCCO4)CC2)cc1,1.41,1.36
COC(=O)c1ccc(CN(c2ccccc2OC)S(=O)(=O)c2cccs2)o1,2.49,-1.35
CCS(=O)(=O)n1c(Cc2cccs2)nc2ccccc21,0.31,-0.99
COc1cccc2c(=O)n(CC(=O)NC3CCCCC3)ccc12,0.98,0.02
COc1cccc(NC(=O)c2cccc(C(=O)Nc3cccc(OC)c3)c2)c1,0.78,0.15
Cc1ncc([N+](=O)[O-])n1S(=O)(=O)c1cc(Cl)ccc1Cl,0.85,0.15
Cc1cc(S(=O)(=O)NC(C)C)ccc1OCC(=O)Nc1ccc2c(c1)OCCO2,0.09,-0.31
CCOc1ccc(CCNC(=O)c2cccnc2N2CCCC2)cc1OCC,0.41,1.19
O=C(COC(=O)c1c[nH]c(=O)[nH]c1=O)NCc1ccccc1,0.02,0.13
O=C(CSc1nnc(-c2cccnc2)n1Cc1ccco1)N1CCc2ccccc21,0.36,0.45
O=C(COC(=O)Cc1ccccc1F)Nc1cccc(S(=O)(=O)NC2=NCCCCC2)c1,0.24,5.4
O=C(NCCc1ccc(Cl)cc1)C1CCN(S(=O)(=O)c2cccs2)CC1,0.85,-0.47
COc1nc(Nc2ccc(O)cc2)nc(OC(C(F)(F)F)C(F)(F)F)n1,1.85,0.05
Cc1cccc(OCCCC(=O)NCc2ccco2)c1,1.21,0.42
CCC1CCCCN1C(=O)CSc1nnc(-c2cccs2)o1 (configuration not stated),0.32,-1.48
COc1ccc2nc(C)cc(SCC(=O)OC(C)C)c2c1,0.13,-0.99
C=C1N(c2cccc(Cl)c2)C(=O)OC1(C)C,0.09,1.29
Cc1cc(N2CCC(N(C)C3CCCC3)CC2)nc2cc(O)ccc12,0.13,0.02
COC(c1ccccc1)c1nnc(CCC(=O)NCc2cccc(-n3cccn3)c2)o1 (configuration not stated),1.38,-0.09
COc1cccc(NC(=O)CSc2nnnn2C2CCCC2)c1,0.01,1.78
CC1CCCC(NC(=O)C2CCC(CNc3c(N4CCCCC4)c(=O)c3=O)CC2)C1C (configuration not stated),0.2,0.04
CC1(C)CC2(C)OCCN2C(=S)N1 (configuration not stated),1.3,0.01
COc1ccc(C2/C(=C(/O)c3ccc(C)cc3)C(=O)C(=O)N2CCCN2CCOCC2)cc1 (configuration not stated),1.35,-0.69
Cc1ccsc1/C=N/N1CCN(Cc2ccccc2)CC1,0.12,0.96
O=C(CN1CCc2cc3c(cc2C1)OCCCO3)Nc1c(F)cccc1F,1.15,2.26
C=CCn1c(SCCC(=O)O)nnc1-c1cccs1,1.03,0.03
CCOC(=O)N1CCN(C(=O)c2ccc(CS(=O)(=O)c3ccccc3OC)o2)CC1,0.24,-1.07
Cc1cc(OC(=O)c2c(C)cc(OC(=O)c3c(C)cc(O)cc3O)cc2O)cc(O)c1C(=O)O,0.05,-0.42
CCCc1cc(-c2n[nH]c(C(=O)OCC)c2-c2cscn2)c(O)cc1O,0.13,0.9
CCc1ccc(NC(=O)Cn2nnc(C(=O)NCc3ccco3)c2N)cc1,1.17,-2.04
COc1cc(/C=C/C(=O)OCC(=O)Nc2ccc(S(N)(=O)=O)cc2)ccc1O,0.18,0.28
COc1cc(/C=N/NC(=O)Cn2cnc3c2c(=O)n(C)c(=O)n3C)ccc1O,1.76,-0.33
Cc1ccc(OCC(=O)NCCCNC(=O)c2cnccn2)cc1C,1.72,0.83
Cc1ccc(S(=O)(=O)C2(C(=O)NC3CCCCC3)CC2)cc1,0.44,1.82
CC1CCN(Cc2cc(=O)oc3ccc(C(C)C)cc23)CC1,0.13,1.3
CCC(CC)c1nnc(NC(=O)c2ccc([N+](=O)[O-])cc2)s1,0.12,-0.23
Cc1noc(-c2ccc(C(F)(F)F)cc2)c1NC(=O)Nc1ccc(Cl)cc1,0.01,0.2
CC(=O)NC(CCS(C)(=O)=O)C(=O)Nc1cc(C)ccc1C (configuration not stated),0.84,1.07
CCCc1cc(O)c2c(C)cc(=O)oc2c1,0.87,-2.95
Cc1cccc(-n2c(N)cc(=O)nc2SCC(=O)Nc2cc(C)on2)c1,1.67,2.81
O=C(Nc1c2c(nc3ccccc13)CCCC2)c1ccccc1Cl,0.79,1.79
CCOC(=O)c1ccc(NC(=O)CCNS(=O)(=O)c2ccc3c(c2)oc(=O)n3C)cc1,0.05,-0.93
O=C(CN1C(=O)C2CCCCC2C1=O)Nc1nc(-c2ccc(F)cc2)cs1 (configuration not stated),2.76,0.13
CS(=O)(=O)c1ccc2nc(NC(=O)c3ccc(S(=O)(=O)NCC4CCCO4)cc3)sc2c1 (configuration not stated),0.32,-1.69

# Next section.
SMILES,KCNQ2 enhance,KCNQ2 enhance baseline
COc1cc(NC(=O)CSCc2ccccc2)c(C(=O)O)cc1OC,1.26,-0.67
COC(=O)c1cc(-c2ccccc2)sc1NC(=O)c1cc(C)on1,0.24,-0.15
C=CCn1c(SCC(=O)NC(=O)NCC(C)C)nnc1C1CCCCC1,0.03,-0.07
CCOc1cc(OCC)cc(C(=O)O)c1,1.08,-1.26
Cc1cc(NC(=O)COC(=O)c2ccccc2S(=O)(=O)N(C)c2ccccc2)no1,0.3,-0.86
CCOC(=O)Nc1cc(C(=O)OC)cc(C(=O)OC)c1,0.19,-0.98
COc1cc(C)c(C(C)C)cc1S(=O)(=O)n1ccnc1,0.96,0.02
CCc1ccc(N(CC(=O)NC2CCCC2)S(=O)(=O)c2c(C)noc2C)cc1,0.65,-0.08
CC1CCN(c2ccc(NC(=O)c3ccccc3[N+](=O)[O-])cc2)CC1,0.91,-0.82
O=C(c1cccnc1)N1CCN(c2c(Cl)cccc2[N+](=O)[O-])CC1,2.03,7.43
Oc1ccccc1N=Cc1ccc[nH]1,0.6,-0.59
CC(Sc1nnc(COc2ccc(Cl)cc2)n1-c1ccccc1)C(=O)O (configuration not stated),0.01,0.28
CCn1cc(Cl)c(C(=O)Nc2cccc(CN3CCOCC3)c2)n1,0.15,-0.07
CCN(CC)S(=O)(=O)c1ccc(C(=O)OCCN2C(=O)CCC2=O)cc1,0.12,-2.4
CC(=O)c1cccc(NC(=O)CCS(=O)(=O)c2ccc(Br)s2)c1,2.17,-1.86
COc1ccccc1-c1c(C)oc2c(CN3CCN(CCO)CC3)c(O)ccc2c1=O,0.41,0.84
Cc1cccc(NC(=O)CSCc2nc3c(nnn3Cc3ccc(F)cc3)c(=O)[nH]2)c1C,0.94,0.25
CC(C)Sc1nc(-c2ccccc2)cc(=O)[nH]1,0.04,0.95
CC(=O)c1ccc(S(=O)(=O)N(C)C(C)CCc2ccco2)cc1 (configuration not stated),0.34,-2.25
Cc1ccc(C)c(NC(=O)C2CCC(C)(C(=O)O)C2(C)C)c1 (configuration not stated),1.46,-0.51
CSC1=N/C(=C\c2cccc(F)c2)C(=O)S1,0.17,5.15
CCc1nc(SCC(=O)NCCc2ccccc2)c2c(=O)n(C)c(=O)n(C)c2n1,0.86,-1.57
C/C(N)=C(/C#N)C(=O)CSc1nc2ccc(C)cc2[nH]1,0.15,-0.37
CC(C)(C)NC(=O)C(c1ccccc1)N(C(=O)c1ccco1)C1CC1 (configuration not stated),0.37,0.42

# Individual results from the entries so far.
# Result of CC(C)Sc1nc(-c2ccccc2)cc(=O)[nH]1 under KCNQ2 enhance baseline: 0.95
# Result of CC(=O)c1ccc(S(=O)(=O)N(C)C(C)CCc2ccco2)cc1 (configuration not stated) under KCNQ2 enhance: 0.34

# Further compounds.
SMILES,KCNQ2 enhance,KCNQ2 enhance baseline
CC(C)C(c1nnnn1Cc1ccc(F)cc1)N1CCC(C(N)=O)CC1 (configuration not stated),0.2,0.54
COC(=O)c1ccc(OC(=O)c2nn(C)cc2Cl)c(OC)c1,1.23,-0.02
CC(C)Oc1ccc(C2CCC(=O)NC2=O)cc1 (configuration not stated),1.9,0.18
Cn1c(SCc2cnc(-c3ccccc3)s2)nnc1C1COc2ccccc2O1 (configuration not stated),0.88,0.52
CC(C)(C)c1cc(NC(=O)NN2CCOCC2)nn1-c1c(Cl)cc(Cl)cc1Cl,0.14,2.67

# Assay outcomes (PubChem)

# Some of the compounds tested (hit frequency here may not be typical).
